Source: PubChem BioAssay
Fam108B inh – counter-screen for RBBP9 inhibitors: inhibitors of mouse Fam108B | recombinant Fam108B, FP-Rh probe fluorescence polarization | inhibition, % at 9.51 µM | 0.33% of 300,000 active | AID 1947;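 active = inhibition above the screen mean inhibition plus 3 SD, computed separately per campaign, cut at about 18% in these data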;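 note: inhibitors lower polarization as less probe binds the enzyme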
Efflux pump mplx – inhibitors of Candida antifungal efflux pumps expressed in yeast; 0.44% of 330,000 active; inhibition, % at 10 µM; S. cerevisiae Candida pump triplex, Nile Red efflux;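 active = plate passing quality check with inhibition over a set limit, or well fluorescence over plate mean plus 4 SD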;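 note: Nile Red retained in pooled yeast measured as flow cytometry median fluorescence; 0% = buffer negative control and 100% = Enniatin B positive control; higher means more Nile Red kept so more efflux inhibition; some compounds called inactive have numbers as strong as hits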
Yeast superoxide – yeast age-related superoxide inhibition as caloric restriction mimetic | S. cerevisiae aged cells, superoxide DHE fluorescence; active compounds read low | superoxide response (% of plate mean), % at 10 µM | 0.18% of 330,000 active | AID 2690;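 active = superoxide response under a set limit, about three screen SD below normal, cut at about 65% in these data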;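 note: yeast aged for seven days with compound at 30 °C before DHE staining; 100% = average MFI of all compound-treated wells on the plate with controls excluded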
EBNA-1 inh – blocks EBNA-1 binding to DNA; EBNA-1 DNA binding, fluorescence polarization; inhibition, % at 14.8 µM; 0.34% of 300,000 active; AID 1950; in the data active = inhibition above about 28%
MEX-5 binding – C. elegans MEX-5 TCR-2 RNA binding activity; Q9XUB2; MEX-5/FITC-TCR2 RNA binding, fluorescence polarization; active compounds read low; activity score (negative = inhibition of binding), % at 10 µM; 0.38% of 300,000 active; AID 1832;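 active = inhibition past about -25% in most replicates, and total fluorescence under double the plate's negative control median, limit read from the data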;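 note: 0% = DMSO and -100% = 5 µM competing unlabeled TCR2 RNA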
Target sequence (Q9XUB2 whole entry, looked up): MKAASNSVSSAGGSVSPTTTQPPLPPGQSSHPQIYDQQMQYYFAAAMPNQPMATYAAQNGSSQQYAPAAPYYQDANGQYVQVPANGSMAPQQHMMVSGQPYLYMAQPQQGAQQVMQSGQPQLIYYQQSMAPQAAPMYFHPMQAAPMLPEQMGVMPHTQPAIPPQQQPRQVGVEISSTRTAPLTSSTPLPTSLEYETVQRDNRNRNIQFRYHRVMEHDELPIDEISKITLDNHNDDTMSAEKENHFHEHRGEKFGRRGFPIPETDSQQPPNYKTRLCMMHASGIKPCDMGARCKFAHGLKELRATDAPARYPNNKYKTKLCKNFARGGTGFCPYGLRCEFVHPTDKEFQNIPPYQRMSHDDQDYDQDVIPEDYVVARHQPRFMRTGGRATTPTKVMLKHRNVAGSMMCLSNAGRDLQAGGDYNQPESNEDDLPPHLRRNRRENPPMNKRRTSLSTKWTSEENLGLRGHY
GLD-1 RNA inh – GLD-1-TGE RNA interaction inhibition (C. elegans); Q17339; purified GLD-1 + fluorescein TGE RNA, fluorescence polarization; inhibition, % at 5.96 µM; 0.44% of 320,000 active; AID 2280;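 active = percent inhibition above a per-plate cutoff, the plate mean of test compounds plus 3 SD, cut at about 30% in these data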;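 note: 0% = DMSO wells with GLD-1 and probe and 100% = wells lacking GLD-1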
Target sequence (Q17339 whole entry, looked up): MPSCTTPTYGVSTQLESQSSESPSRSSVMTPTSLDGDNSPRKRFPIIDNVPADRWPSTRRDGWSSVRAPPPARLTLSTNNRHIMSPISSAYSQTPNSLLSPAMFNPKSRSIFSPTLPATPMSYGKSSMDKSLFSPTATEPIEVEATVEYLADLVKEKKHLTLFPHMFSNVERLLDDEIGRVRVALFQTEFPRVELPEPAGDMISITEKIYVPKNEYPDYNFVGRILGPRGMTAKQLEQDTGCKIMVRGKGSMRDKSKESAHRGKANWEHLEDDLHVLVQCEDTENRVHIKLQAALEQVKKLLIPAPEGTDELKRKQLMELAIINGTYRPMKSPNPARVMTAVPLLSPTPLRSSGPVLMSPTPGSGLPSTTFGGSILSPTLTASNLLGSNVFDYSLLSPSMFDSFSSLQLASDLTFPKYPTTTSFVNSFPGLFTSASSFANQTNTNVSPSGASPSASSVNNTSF
ZTA DNA inh – blocks Epstein-Barr virus ZTA, an EBNA-1 counter-screen; ZTA-DNA binding, fluorescence polarization; inhibition, % at 11 µM; AID 2234; P03206; 0.15% of 320,000 active; in the data active = inhibition above about 33%
* hit, by the source's call; . = no result given.

SMILES | Fam108B inh | Efflux pump mplx | Yeast superoxide | EBNA-1 inh | MEX-5 binding | GLD-1 RNA inh | ZTA DNA inh
CN1C(=O)C(CC(=O)Nc2ccc(Cl)cc2)N(Cc2ccco2)C1=S (stereo unspecified) | -9 | 0.1 | 75 | -1 | 0.2 | -4 | 10
Cc1c(/C=N/NC(=O)c2ccc(O)cc2)c2ccccn2c1C(=O)c1ccc(F)cc1 | 3 | -0.2 | 76 | 0 | 0.5 | 5 | 30
COc1ccc(/C=N/Nc2nc(-c3ccc(Cl)cc3)cc(C(F)(F)F)n2)c(OC)c1 | 0 | -0.3 | 95 | 11 | -1.8 | 1 | 1
COc1cc(/C=N\NC(=O)CN2CCOCC2)ccc1OCC(=O)Nc1ccc(C)c(C)c1 | 1 | 0.2 | 122 | 11 | -2.0 | 1 | 3
CC1(OC(=O)CCc2ccccc2)C(=O)C=C2C=C(c3ccsc3)OC=C2C1=O (stereo unspecified) | 6 | 0.2 | 96 | -1 | -17 | 23 | -5
COc1cc(/C=N/NC(N)=O)ccc1OCC(=O)Nc1cc(C)c(C)cc1Br | -4 | 0.1 | 99 | 9 | -0.6 | 4 | -11
CCCCn1nnnc1NCc1cc(OC)c(OC)cc1OC | -3 | 0.0 | 133 | 9 | -0.4 | -2 | 6
OC1COC(O)C(O)C1O (stereo unspecified) | 0 | -0.1 | 106 | 3 | 2.3 | 0 | 5
O=C(Nc1ccc2oc(=O)ccc2c1)c1ccc(-c2ccccc2[N+](=O)[O-])o1 | -1 | -0.1 | 90 | 17 | -1.3 | 3 | 20
Cc1c(C(=O)Nc2ccc3c(c2)OCO3)sc2ncn(CC(=O)N3CC(C)CC(C)C3)c(=O)c12 (stereo unspecified) | -7 | 0.1 | 95 | 4 | -0.6 | -1 | 1
Cc1cc(=O)n(-c2ccc(C(=O)O)cc2)[nH]1 | 5 | 0.0 | 116 | 9 | -1.0 | -4 | 4
COC(=O)C(NC(C)=O)(Nc1sc2c(c1C(N)=O)CCCC2)C(F)(F)F (stereo unspecified) | -4 | 0.1 | 104 | -24 | 1.7 | 4 | 7
O=C(NCN1CCOCC1)c1cnccn1 | -3 | 0.0 | 114 | 0 | 3.0 | -2 | -11
Cc1cccc(NC(=O)c2ccccc2OCC(=O)c2ccccc2)c1 | -21 | 0.2 | 108 | -7 | -2.1 | 6 | 2
CCOc1cccc(C(=O)Nc2cccc(C(=O)NC(C)(C)C)c2)c1 | -3 | 0.9 | 104 | -1 | -0.9 | 5 | -6
COC(=O)CCC(=O)OC1(C)C(=O)C=C2C=C(C3CC3)N(Cc3ccccc3)C=C2C1=O (stereo unspecified) | 9 | -0.1 | 101 | 1 | -9.4 | 14 | -7
CC(NC(=O)Cc1cccs1)c1ccccc1 (stereo unspecified) | 3 | -0.3 | 109 | -8 | -2.6 | 1 | -3
COc1ccc(-c2nnc(-c3ccc(OCC(C)C)cc3)o2)cc1 | -2 | 0.2 | 97 | -13 | 1.6 | -10 | 5
CCOc1cccc(C(=O)NC(=S)Nc2cccc(C)c2)c1 | -1 | -0.1 | 90 | 13 | 1.5 | -1 | 9
CC1=C(/C=C/C(C)=C/C=C/C(C)=C/C(=O)O)C(C)(C)CCC1 | 9 | -0.1 | 100 | 10 | -0.7 | 5 | 11
COc1cccc(OCC(=O)Nc2ccccc2C(N)=O)c1 | -6 | 0.1 | 107 | 10 | 1.3 | 0 | 7
Cc1sc2nc(CSc3ccccc3)nc(N3CCC(C(N)=O)CC3)c2c1C | 0 | 0.0 | 70 | 1 | -1.4 | 5 | 0
CNC(=S)NNC(=O)c1oc2nc(-c3ccccc3)cc(-c3ccco3)c2c1N | -4 | 0.3 | 102 | -11 | -5.6 | 39* | -3
COc1ccc(-c2ccc3c(N)c(C(=O)c4ccc(OC)c(OC)c4)sc3n2)cc1 | -2 | 0.2 | 94 | 1 | -8.1 | -21 | 9

Taken from the entries so far (13 entries):
SMILES | Fam108B inh | Efflux pump mplx | Yeast superoxide | EBNA-1 inh | MEX-5 binding | GLD-1 RNA inh | ZTA DNA inh
O=C(Nc1ccc2oc(=O)ccc2c1)c1ccc(-c2ccccc2[N+](=O)[O-])o1 | -1 | -0.1 | 90 | 17 | -1.3 | 3 | 20
Cc1c(C(=O)Nc2ccc3c(c2)OCO3)sc2ncn(CC(=O)N3CC(C)CC(C)C3)c(=O)c12 (stereo unspecified) | -7 | 0.1 | 95 | 4 | -0.6 | -1 | 1
Cc1cc(=O)n(-c2ccc(C(=O)O)cc2)[nH]1 | 5 | 0.0 | 116 | 9 | -1.0 | -4 | 4
COC(=O)C(NC(C)=O)(Nc1sc2c(c1C(N)=O)CCCC2)C(F)(F)F (stereo unspecified) | -4 | 0.1 | 104 | -24 | 1.7 | 4 | 7
O=C(NCN1CCOCC1)c1cnccn1 | -3 | 0.0 | 114 | 0 | 3.0 | -2 | -11
Cc1cccc(NC(=O)c2ccccc2OCC(=O)c2ccccc2)c1 | -21 | 0.2 | 108 | -7 | -2.1 | 6 | 2
CCOc1cccc(C(=O)Nc2cccc(C(=O)NC(C)(C)C)c2)c1 | -3 | 0.9 | 104 | -1 | -0.9 | 5 | -6
COC(=O)CCC(=O)OC1(C)C(=O)C=C2C=C(C3CC3)N(Cc3ccccc3)C=C2C1=O (stereo unspecified) | 9 | -0.1 | 101 | 1 | -9.4 | 14 | -7
CC(NC(=O)Cc1cccs1)c1ccccc1 (stereo unspecified) | 3 | -0.3 | 109 | -8 | -2.6 | 1 | -3
COc1ccc(-c2nnc(-c3ccc(OCC(C)C)cc3)o2)cc1 | -2 | 0.2 | 97 | -13 | 1.6 | -10 | 5
CCOc1cccc(C(=O)NC(=S)Nc2cccc(C)c2)c1 | -1 | -0.1 | 90 | 13 | 1.5 | -1 | 9
CC1=C(/C=C/C(C)=C/C=C/C(C)=C/C(=O)O)C(C)(C)CCC1 | 9 | -0.1 | 100 | 10 | -0.7 | 5 | 11
COc1cccc(OCC(=O)Nc2ccccc2C(N)=O)c1 | -6 | 0.1 | 107 | 10 | 1.3 | 0 | 7

(cont.)
SMILES | Fam108B inh | Efflux pump mplx | Yeast superoxide | EBNA-1 inh | MEX-5 binding | GLD-1 RNA inh | ZTA DNA inh
COc1cccc2sc(Nc3nc4ccc(NC(C)=O)cc4s3)nc12 | 7 | 0.1 | 100 | 5 | 2.8 | -7 | 8
COc1ccc(C(C#N)Nc2ccccc2C)cc1 (stereo unspecified) | 1 | -0.1 | 90 | 11 | -1.0 | 2 | 0
COc1cc(Nc2ccccn2)cc(C(=O)Nc2cccc(C(F)(F)F)c2)c1 | 6 | -0.1 | 101 | 6 | 4.0 | 9 | 2
COc1ccc(OC)c2sc(NC(=O)C3CC3)nc12 | -3 | 0.0 | 94 | 1 | -2.1 | 2 | 23
c1ccc(-c2cnc(-c3cccnc3)o2)cc1 | 3 | 0.0 | 93 | 3 | . | 4 | 5
COc1ccc(S(=O)(=O)N(CCCN2CCOCC2)Cc2cccc3ccccc23)cc1 | -6 | 0.1 | 106 | -4 | -1.1 | 0 | -16
C=CCSc1n[nH]c(-c2cccs2)n1 | -5 | -0.1 | 108 | -1 | -1.9 | 9 | -10
N#Cc1ccc(/C=N/NC(=O)c2ccccc2F)cc1 | 4 | -0.2 | 98 | -8 | -1.6 | 3 | -3
Cc1cc(N/N=C\c2ccc(Br)cc2)nc(-n2nc(C)cc2C)n1 | -5 | 0.1 | 113 | 2 | 2.4 | 4 | 2
O=C(CSc1nnc2c3c4c(sc3ncn12)CCCC4)NCc1ccco1 | -5 | -0.1 | 106 | 32* | -1.1 | -3 | 2
O=C(OC1CCOC1=O)c1cccc(S(=O)(=O)Nc2cccc(Cl)c2)c1 (stereo unspecified) | -1 | 0.1 | 85 | 2 | 1.4 | 5 | 3
Cc1ccc(-c2cnc(NC(=O)CCC(=O)N(C)Cc3ccccc3)n2C)cc1 | 2 | 0.2 | 96 | 1 | -1.2 | 9 | 8
O=C(Nc1ccccc1)Nc1nnc(-c2cccs2)s1 | -2 | 0.5 | 101 | -2 | -1.9 | -9 | -4
CCn1c(COc2ccc(C)cc2)nnc1SCC(=O)Nc1ccc(S(N)(=O)=O)cc1 | -1 | 0.1 | 106 | -4 | -0.8 | 3 | 12
Cc1ccc(C(=O)N(C)c2nnc(-c3ccncc3)s2)cc1 | 2 | 0.0 | 83 | -1 | 0.8 | -10 | -5
O=C1OC(c2ccc(Cl)cc2)=N/C1=C\C=C\c1ccco1 | 0 | 0.1 | 85 | 0 | -0.5 | 5 | 13
COc1ccc2[nH]c3nc(SCc4nnc(-c5ccc(C)cc5)o4)nnc3c2c1 | -10 | -0.1 | 88 | 55* | -2.2 | 1 | 3
COc1ccccc1OCC(=O)Nc1ccc(CSc2ccccc2)cc1C | -5 | 0.2 | 104 | -1 | -0.8 | 0 | 1
COc1ccc(OC)c(CN(CCCN2CCOCC2)S(=O)(=O)c2ccc(NC(C)=O)cc2)c1 | 1 | 0.1 | 104 | 2 | -2.0 | -5 | -16
O=C(N/N=C/c1ccc([N+](=O)[O-])o1)c1cn(-c2ccccc2)nc1-c1ccc(Cl)cc1 | -3 | -0.2 | 92 | 4 | 1.0 | 1 | -4
Cc1cn([C@H]2C[C@H](N=[N+]=[N-])[C@@H](CO)O2)c(=O)[nH]c1=O | -1 | -0.1 | 97 | 1 | 0.2 | -1 | -11
Cc1nn(-c2ccccc2)c2[nH]c(=O)c(CNCC3CCCO3)cc12 (stereo unspecified) | 2 | 0.0 | 97 | 4 | -0.5 | 5 | 7
O=c1cc(O)nc(SCc2ccccc2Cl)[nH]1 | -1 | 0.1 | 87 | -8 | -1.1 | 2 | -11
CCOc1ccc(N=C2NC(=O)S/C2=C\c2ccc(Cl)cc2)cc1 | -9 | -0.3 | 95 | 3 | -2.5 | 3 | 0
NC(=O)C(c1ccc(Sc2ccccc2)nn1)c1ccc(Cl)cc1Cl (stereo unspecified) | -5 | 0.4 | 111 | -16 | -0.1 | 5 | 16
Oc1oc(-c2ccco2)nc1C=Nc1ccccc1 | 13 | 0.0 | 108 | -6 | -1.2 | 3 | 4
CCOCc1[nH]c(=S)[nH]c(=O)c1Cc1ccc(OC(C)C)cc1 | -3 | 0.0 | 104 | -3 | 2.3 | -2 | -1
O=C(O)/C=C/c1cn(-c2ccccc2)nc1-c1ccc(-c2ccc([N+](=O)[O-])cc2)o1 | -11 | 0.9* | 109 | -6 | -3.5 | -6 | 5
CC(C)NC(=O)COC(=O)c1cc(F)c(F)cc1Cl | 2 | 0.3 | 97 | -28 | 0.1 | 2 | -10
N#CC(c1ccccn1)(c1ncc(C(F)(F)F)cc1Cl)N1CCOCC1 (stereo unspecified) | 1 | 0.0 | 83 | 4 | 0.1 | 2 | -6
COC(=O)Nc1ccc2c(c1)N(C(=O)CCN1CCN3CCCC3C1)c1ccccc1S2 (stereo unspecified) | 0 | 0.2 | 99 | 0 | -2.0 | 5 | -2
COc1ccc(-n2c(=S)[nH]c3cc(C(=O)Nc4ccc(OC)c(OC)c4)ccc3c2=O)cc1 | -9 | 0.1 | 97 | 0 | -1.4 | 3 | 17
COc1ccc2[nH]c(C)c(C(=O)CN3CC(C)OC(C)C3)c2c1 (stereo unspecified) | 4 | -0.1 | 99 | 4 | 0.3 | 0 | -1
NCCS(=O)(=O)O | 0 | -0.2 | 89 | 4 | 5.9 | 0 | -8
COc1cc([N+](=O)[O-])ccc1-c1ccc(C(=O)Nc2ccc(NC(C)=O)cc2)o1 | 2 | 0.1 | 111 | 4 | -1.3 | 5 | 14
CCC(=O)Nc1nc2c(OC)ccc(C)c2s1 | 3 | -0.1 | 101 | 11 | 0.1 | 1 | 12
O=c1cc(CN2CCN(c3ccccc3)CC2)c2c(ccc3ccccc32)o1 | -3 | -0.2 | 106 | -8 | 4.2 | 2 | 13
Cc1cc(CSc2ccccc2)ccc1NC(=O)COc1ccccc1C | -1 | -0.1 | 83 | 8 | -1.5 | -3 | 20
Cc1c(/C=N/NC(N)=O)c2ccccn2c1C(=O)c1ccc(F)cc1 | 2 | -0.2 | 94 | -7 | -2.9 | -4 | -26
CCOC(=O)c1cc2c(ccn2-c2ccc(F)cc2)n1CC(=O)N1CCN(C(=O)c2ccco2)CC1 | -1 | 0.3 | 113 | -7 | 1.4 | -7 | -1

Not all compounds are listed; rates above refer to the full screens.
